Source: PubChem
HPGD block: qHTS Assay for Inhibitors of HPGD (15-Hydroxyprostaglandin Dehydrogenase) | 15-hydroxyprostaglandin dehydrogenase [NAD(+)] (Homo sapiens), P15428 | purified HPGD, NADH fluorescence kinetic, PGE2 substrate | Potency, µM, for inactives: top-dose activity change, negative = inhibition, most hits filed as inhibitors | 150,000 tested, 4.3% active; active = well fitted inhibition curve with a large enough effect (not every such curve was filed as active); inconclusive = small, poorly fitted or top-dose-only effect, or another doubt; inactive = no such curve, though single readings can be large or run the other way;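 note: top concentration of the series not given in the record; plate controls included wells without enzyme; inactives centre near -10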
Target sequence (P15428 whole entry, looked up): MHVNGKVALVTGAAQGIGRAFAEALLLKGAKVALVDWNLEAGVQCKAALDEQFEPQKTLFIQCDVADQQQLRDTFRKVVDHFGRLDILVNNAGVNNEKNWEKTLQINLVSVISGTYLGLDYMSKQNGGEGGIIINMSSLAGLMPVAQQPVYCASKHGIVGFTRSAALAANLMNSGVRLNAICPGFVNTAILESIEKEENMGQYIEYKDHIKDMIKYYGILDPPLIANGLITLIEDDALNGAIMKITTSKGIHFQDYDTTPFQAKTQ
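NADH formation kinetics: reaction with 30 uM PGE2 and 1 mM NAD+ (final), 20 nM enzyme, Tris-HCl pH 8 with Tween 20, after 15 min compound preincubation at room temperature. Fluorescence change, last versus first of five reads.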
* = called active by the depositor; ? = inconclusive; [ ] = another dose, or the depositor's remark. % is set by controls: 0 for no effect and ±100 for the full control effect; potency is the fitted concentration of half-maximal effect.

HPGD block	Compound
-2.0%	CCOCCOC(=O)C1=C(C)N(C)C(=O)NC1c1ccccc1F (stereo unspecified)
-18.2%	C=CCn1c(COc2ccc(CC)cc2)nnc1SC/C(O)=C(\C#N)c1nc2ccccc2[nH]1
14.1µM*	CCc1c(C)nc(SCC(=O)Nc2ccc(Br)cc2)[nH]c1=O
-7.1%	O=C(CC1c2ccccc2Oc2ccccc21)Nc1ccccc1C(F)(F)F
2.4%	O=C1COc2ccc(NC(=O)N3CCN(c4ccc(F)cc4)CC3)cc2N1
-23.0%	Fc1ccc2[nH]c3c(NCCN4CCOCC4)ncnc3c2c1
?	CCc1cc2c(=O)c(-c3nc4ccccc4n3C)coc2c(CN2CCN(C)CC2)c1O
-15.4%	CC1CN(C(=O)c2ccccc2)C(=Nc2cccc(S(=O)(=O)N(C)C)c2)S1 (stereo unspecified)
-8.3%	Cc1cc(C)c(NC(=O)c2ccc(CNS(=O)(=O)c3cc(C(F)(F)F)ccc3Cl)cc2)c(C)c1
?	Cc1cc(NCCN2CCOCC2)n2c(nc3ccccc32)c1C#N
-22.7%	CCc1nnc(NC(=O)c2c(O)c3c([nH]c2=O)CCCC3)s1
-3.8%	Nc1ncnc2c1ncn2[C@@H]1O[C@H](COP(=O)(O)OP(=O)(O)O)[C@@H](O)[C@H]1O
-1.5%	O=C1CC(C(=O)N(c2cccc(F)c2)C(C(=O)NC2CCCC2)c2ccccn2)CS1 (stereo unspecified)
-4.3%	CCOc1ccc(NS(=O)(=O)c2cc(OCC(N)=O)c(C)cc2Cl)cc1
-1.1%	O=C(O)C1CCN(S(=O)(=O)c2ccc(Oc3ccccc3)cc2)CC1
-7.1%	COc1ccc(C2=CC3=C(Br)C(=O)C(C)(OC(=O)c4cccs4)C(=O)C3=CO2)cc1 (stereo unspecified)
1.1%	CCS(=O)(=O)N1CCCC(C(=O)NCc2cccnc2)C1 (stereo unspecified)
-8.9%	CCOc1cc(C(=O)N(C)Cc2cc3cc(OC)ccc3[nH]c2=O)cc(OCC)c1OCC
?	Cc1ccc2sc(-c3ccc(NC(=O)c4cc(-n5cnnc5)ccc4Cl)cc3)nc2c1
-15.7%	Cc1cc(Nc2cccc(F)c2)n2ncnc2n1

(continued)
HPGD block	Compound
-13.7%	O=C(O)c1cc2ccccc2c(Cc2cc3ccccc3c(C(=O)O)c2O)c1O (tested in a mixture with another compound)
-1.8%	C=CCn1c(CSCc2ccc(Cl)cc2)nnc1SCC(=O)NCc1ccccc1
-15.0%	Cc1ccc([N+](=O)[O-])cc1N=Cc1ccc(Br)s1
-3.5%	CC1CCN(CCCNC(=O)c2ccc(CS(=O)(=O)Cc3ccccc3F)o2)CC1
17.8µM*	O=C(c1cccc(F)c1)N1CCC[C@@]2(CCN(Cc3ccccc3)C2)C1
?	Cc1cc(C(F)(F)F)nn1Cc1ccc(C(=O)NCc2ccco2)o1
95.9%[activator]	COc1ccc(/C=C2\CCCC3C2=NN(C(=O)c2scnc2C)C3c2ccc(OC)c(OC)c2)cc1OC (stereo unspecified)
-11.6%	COc1ccccc1C1(CC(=O)O)CCOC(C(C)C)C1 (stereo unspecified)
-8.4%	N[C@H](Cn1ccc(=O)n(Cc2ccccc2C(=O)O)c1=O)C(=O)O
-12.9%	COc1ccc(C)cc1S(=O)(=O)N(C)CC(=O)N1CCC(C)CC1
-16.8%	COC(=O)c1ccc(NS(=O)(=O)c2ccc(SC)cc2)cc1
-2.6%	COCCOCC(O)CN1CCN(c2ccc(C)cc2)CC1 (stereo unspecified)
-12.1%	CNC(=O)COc1ccc(-c2nn(C)c(=O)c3ccccc23)cc1
?	O=C(Cc1cccs1)N1CCCC(c2nc3c(nnn3Cc3ccccc3Cl)c(=O)[nH]2)C1 (stereo unspecified)
-7.7%	NC(N)=N/N=C(\c1ccc(Cl)cc1)C1CC1
-5.2%	CCCCCn1c(CN2CCN(C)CC2)nc2c1c(=O)n(C)c(=O)n2C
-18.9%	COc1cc([N+](=O)[O-])ccc1NC(=O)CCCOc1cc(C)ccc1C
-6.2%	Cc1cc(C)nc(SC(C)C(=O)Nc2ccc(S(N)(=O)=O)cc2)n1 (stereo unspecified)
-9.3%	Cc1cc(NC(=O)c2cc(-c3ccccc3C)nc3ccccc23)no1
-20.7%	CN(C(=O)COC(=O)CCc1c[nH]c2ccccc12)C(c1ccccc1)c1ccccc1

In the list so far, these have an aryl thioether with sulfur outside any ring.
HPGD block	Compound
-18.2%	C=CCn1c(COc2ccc(CC)cc2)nnc1SC/C(O)=C(\C#N)c1nc2ccccc2[nH]1
14.1µM*	CCc1c(C)nc(SCC(=O)Nc2ccc(Br)cc2)[nH]c1=O
-1.8%	C=CCn1c(CSCc2ccc(Cl)cc2)nnc1SCC(=O)NCc1ccccc1
-16.8%	COC(=O)c1ccc(NS(=O)(=O)c2ccc(SC)cc2)cc1
-6.2%	Cc1cc(C)nc(SC(C)C(=O)Nc2ccc(S(N)(=O)=O)cc2)n1 (stereo unspecified)

(cont.)
HPGD block	Compound
-16.0%	CCOC(=O)/C(=N\Nc1cc(Cl)ccc1Cl)N1CCN(CC)CC1
?	O=C1OC(c2ccccc2)=C/C1=C/N1CCCCC1
-8.7%	Cc1nn(C)c(C(=O)NNC(=S)NCC(C)C)c1Cl
-11.9%	COc1cccc(C(=O)NCC(=O)N/N=C/c2cccs2)c1
-10.6%	Cc1nc2ccc(Cl)cc2[nH]1
-9.9%	O=[N+]([O-])c1cccc(/C=N/NC2=NCCCCC2)c1
?	Cc1cc(=O)oc2cc(OCC(=O)NCc3cccnc3)ccc12
?	CCOc1cc(/C=C\c2[nH]c(=O)[nH]c(=O)c2[N+](=O)[O-])ccc1OC(C)CC (stereo unspecified)
-7.4%	C/C(=C/C(=O)NCc1ccccc1)C(=O)O
-1.2%	Cc1cc(N=CC2=C(O)CC(C)(C)CC2=O)no1
17.8µM*	O=C(COc1ccccc1O)Nc1ccccc1Cl
-17.4%	COc1ccccc1C(=O)Nc1ccc(N2CCN(Cc3ccccc3)CC2)cc1
-1.4%	CC(C)CSc1nnc2c(n1)[nH]c1ccccc12
-1.2%	O=C(c1cccs1)N1CCN(Cc2ccncc2)CC1
-17.6%	COc1ccc2c(C)cc(SCC(=O)c3ccc4c(c3)OCO4)nc2c1
-17.2%	Nc1ccc2nc(SCC(=O)Nc3ccc(N4CCOCC4)c(Cl)c3)sc2c1
-10.4%	CC1c2[nH]c3ccccc3c2CCN1S(C)(=O)=O (stereo unspecified)
-8.8%	O=C(Cc1cccs1)N(c1ccc(F)cc1)C1(C(=O)NC2CCCCC2)CCCC1
-10.4%	CCOc1ccccc1N(CC(=O)Nc1ccc2c(c1)OCO2)S(C)(=O)=O
-25.1%	O=c1c(-c2cccc(F)c2)nc2cncnc2n1-c1ccccc1

Later entries
HPGD block	Compound
-14.6%	CC(=O)N1CCC2(CCCN(c3ccncc3)C2)CC1
-12.7%	O=C(NCCc1nc2ccccc2[nH]1)/C(=C/c1ccco1)NC(=O)c1ccccc1Br
-2.9%	Cc1ccc(NC2=C/C(=N/S(=O)(=O)c3cccs3)c3ccccc3C2=O)cc1
-23.8%	Cc1ccc(CN2CCN(/N=C/c3sccc3C)CC2)c(C)c1
-28.7%	CSc1ccccc1NC(=O)c1cc(CC(C)C)on1
15.8µM*	Cc1ccc(NC2c3ncccc3C(=O)N2c2ccccc2C)cc1C (stereo unspecified)
?	Oc1ccccc1/C=N/n1cnn(Cc2ccccc2Cl)c1=S
-5.3%	CC(=O)NC(Cc1ccccc1)C(=O)NC1CCN(C(=O)NC2CCCCC2)CC1 (stereo unspecified)
-9.1%	CC(C)c1c(O)nc(SCC(=O)N2CCOCC2)[nH]c1=O
?	O=C(NCC1CCCO1)c1coc2nc3ccccc3nc12 (stereo unspecified)
-1.1%	CC1(C(=O)NC2CCCCCCC2)CCC(=O)N1CCN1CCOCC1 (stereo unspecified)
-23.3%	CCOC(=O)c1cnc2c(C)cccc2c1NCCc1ccc(OC)c(OC)c1
-5.1%	COc1ccc(CC(=O)NC2CCN(CC(=O)Nc3ccc4c(c3)OCCO4)CC2)cc1OC
-0.6%	O=C1C=C(c2ccccc2)C[C@H](c2cccs2)[C@H]1n1cnc([N+](=O)[O-])c1
-7.0%	Cc1cc(C(=O)OCC(=O)Nc2ccc(F)cc2F)c(C)o1
-18.1%	CC1(C)C(=O)Nc2ccccc2N1C(=O)CSc1nc(-c2ccccc2)cs1
-19.2%	CC(=O)Nc1ccc(-c2nnc(SCC(=O)Nc3ccc4c(c3)oc3ccccc34)n2C)cc1
-23.1%	Cc1ccc2nc(N/N=C/c3ccccc3F)nc(-c3ccccc3)c2c1
-25.6%	O=C(COC(=O)Cn1cnc2ccccc21)Nc1ccc2c(c1)C(=O)c1ccccc1C2=O
2.9%	COC(=O)[C@H](CC(C)C)NC(=O)NC1CCCCC1C (stereo partly specified)

Compounds shown so far containing a cyano group (2):
HPGD block	Compound
-18.2%	C=CCn1c(COc2ccc(CC)cc2)nnc1SC/C(O)=C(\C#N)c1nc2ccccc2[nH]1
?	Cc1cc(NCCN2CCOCC2)n2c(nc3ccccc32)c1C#N

The listing continues.
HPGD block	Compound
?	Fc1ccc(C2C3=C(Nc4ncnn42)c2ccccc2OC3c2ccncc2)cc1 (stereo unspecified)
-15.8%	CC(NC(=O)C1C2C=CC(C2)C1C(=O)O)c1ccccc1 (stereo unspecified)
?	CSCC[C@H](NC(=O)CCNC(C)=O)c1nc2ccccc2[nH]1
-10.5%	O=C(COc1ccc2c(c1)CCC2)NCc1ccc(Cl)cc1
-6.6%	O=C1Nc2ccccc2C12OC1CCCCC1O2 (stereo unspecified)
-8.1%	COc1cccc2c1C(=O)c1c(O)c3c(c(O)c1C2=O)C[C@@](O)(C(=O)CO)C[C@@H]3O[C@@H]1C[C@H](N)[C@H](O)[C@H](C)O1
-5.1%	Cc1cccc(NC(=O)c2c(C)cc(=O)oc2C)n1
?	S=C(Nc1ccc(Cl)cc1)Nc1cccc2cnccc12
-28.4%	O=C(Nc1cccc(F)c1)c1cccnc1NCCc1ccccc1
-16.5%	Cc1ccccc1Nc1cc(C(=O)NCc2ccco2)c2ccccc2n1
-4.8%	C1=C(c2ccccc2)Nc2ccccc2N=C1c1ccccc1
15.8µM*	C/C(=C\C(=O)Nc1nccs1)c1ccccc1
-23.4%	N=c1c2c3c(sc2ncn1Cc1ccccc1)CCCC3
?	CCOC(=O)c1oc2nc(C(C)C)c3c(c2c1N)CCC3
-6.4%	Cc1nc2nc(-c3ccccc3)cc(=O)n2[nH]1
-12.5%	COc1ccc(C(O)Cc2nc3ccccc3n2C)cc1OC (stereo unspecified)
?	COc1ccc2cc3cc(C(=O)N4CCN(Cc5ccc6c(c5)OCO6)CC4)oc3nc2c1
28.2µM*	COc1cc(C2CC(=O)N3CN(c4ccccc4C)CSC3=C2C#N)cc(OC)c1OC (stereo unspecified)
-9.1%	CCCCOc1ccccc1C1CC(=O)NC2=C1C(=O)CCC2 (stereo unspecified)
-16.9%	Cn1c(CS/C(N)=N/N=C/c2ccccc2)c(Br)c(=O)n1-c1ccccc1

The list continues.
HPGD block	Compound
-21.8%	COc1cccc(C2C(C(=O)c3sc(C)nc3C)=C(O)C(=O)N2CCN2CCOCC2)c1 (stereo unspecified)
-11.7%	CCN(CC)S(=O)(=O)c1ccc2c(c1)c(C(=O)O)cn2C
-3.7%	Cc1ccc(OCC(=O)OC2CCS(=O)(=O)C2)cc1 (stereo unspecified)
-15.3%	Cn1nnnc1SCC1=C(C(=O)O)N2C(=O)[C@@H](NC(=O)[C@@H](O)c3ccccc3)[C@@H]2SC1
-9.4%	Cc1ccc(NC(=O)c2ccc(-n3cncn3)c([N+](=O)[O-])c2)cc1
-11.1%	Cc1ccc(CNC(=O)N2CCN(C)CC2)cc1
?	CCCCNC(=O)c1cc2c(-c3ccc(Cl)cc3)nn(C)c2s1
-7.4%	O=[N+]([O-])c1c(Cl)cc(Cl)cc1Cl
-0.6%	O=C(NO)c1ccc(OC(F)F)cc1
-11.6%	COc1cc(OC)c(C2N(c3cc(C)on3)C(=O)C3CCCN32)cc1OC (stereo unspecified)
-2.6%	CC(C)CCC[C@@H](C)[C@@H]1CC[C@@H]2[C@H]3CC[C@H]4C[C@@H](N)CC[C@@]4(C)[C@@H]3CC[C@]21C
-9.8%	Cc1c(C(=O)NCC2CCCO2)oc2ccc(S(=O)(=O)N3CC(C)CC(C)C3)cc12 (stereo unspecified)
-9.7%	CCSc1nnc(NC(=O)C2CCN(S(=O)(=O)c3c(C)c(C)cc(C)c3C)CC2)s1
?	CCOC(=O)c1cc(CC)sc1NC(=O)COc1ccc2c(C)cc(=O)oc2c1
-3.1%	O=C(Cn1ncc2c1-c1ccccc1OC2)N1CCc2ccccc21
-9.3%	CC(Sc1nc(-c2ccccc2)cc(C(F)(F)F)n1)C(=O)N1CCC(C(N)=O)CC1 (stereo unspecified)
-21.4%	CC(=O)c1cn(S(=O)(=O)c2ccccc2)c2ccccc12
-2.7%	O=C(Nc1ccc(Cl)c([N+](=O)[O-])c1)C(NCCCO)c1ccccc1 (stereo unspecified)
-14.0%	C=CCOc1ccc(/C(O)=C2\C(=O)C(=O)N(CCCOC)C2c2ccc(O)c(OC)c2)cc1 (stereo unspecified)
4.8%	N#CCCn1nnc(-c2ccccc2F)n1

7 consecutive entries already listed:
HPGD block	Compound
-7.4%	O=[N+]([O-])c1c(Cl)cc(Cl)cc1Cl
-0.6%	O=C(NO)c1ccc(OC(F)F)cc1
-11.6%	COc1cc(OC)c(C2N(c3cc(C)on3)C(=O)C3CCCN32)cc1OC (stereo unspecified)
-2.6%	CC(C)CCC[C@@H](C)[C@@H]1CC[C@@H]2[C@H]3CC[C@H]4C[C@@H](N)CC[C@@]4(C)[C@@H]3CC[C@]21C
-9.8%	Cc1c(C(=O)NCC2CCCO2)oc2ccc(S(=O)(=O)N3CC(C)CC(C)C3)cc12 (stereo unspecified)
-9.7%	CCSc1nnc(NC(=O)C2CCN(S(=O)(=O)c3c(C)c(C)cc(C)c3C)CC2)s1
?	CCOC(=O)c1cc(CC)sc1NC(=O)COc1ccc2c(C)cc(=O)oc2c1

The list is partial. The share of hits here may be higher or lower than overall.
